Source: PubChem BioAssay (ICCB-Longwood Screening Facility, Harvard Medical School)
PV pol inh: poliovirus RNA polymerase inhibition | 150,000 tested, 0.66% active | P03300 | poliovirus polymerase elongation, fluorescence polarization; hits give low values | AID 588519 | % elongation, % (compound at 16.7 µg/mL); in the data active means % elongation below about 90%; further: some results filed as inactive read as strong as hits
Target sequence (P03300 1749-2209 limits assumed): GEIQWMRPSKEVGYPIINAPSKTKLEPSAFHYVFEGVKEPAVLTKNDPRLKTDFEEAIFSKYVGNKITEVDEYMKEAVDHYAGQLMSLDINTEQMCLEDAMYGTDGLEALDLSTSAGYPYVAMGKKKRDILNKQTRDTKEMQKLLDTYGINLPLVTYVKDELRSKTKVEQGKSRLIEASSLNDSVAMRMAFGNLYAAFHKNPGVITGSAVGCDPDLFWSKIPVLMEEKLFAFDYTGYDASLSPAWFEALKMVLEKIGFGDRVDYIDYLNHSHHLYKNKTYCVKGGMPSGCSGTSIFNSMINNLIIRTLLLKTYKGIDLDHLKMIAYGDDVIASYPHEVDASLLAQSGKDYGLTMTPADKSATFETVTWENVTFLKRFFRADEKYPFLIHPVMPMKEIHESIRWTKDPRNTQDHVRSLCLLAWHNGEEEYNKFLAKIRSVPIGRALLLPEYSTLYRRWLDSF
PV pol inh intensity: second read-out of PV pol inh, no call of its own (marks repeat the call); % elongation; measured here: total intensity read-out; formula for this scale not given here;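 total fluorescence in place of polarization; lower means less elongation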
The depositor's hits bear a star. The list is partial (hit frequency here may not be typical).

CC(C)Oc1ccc(CNC(=O)c2ccc(NC(=O)N3CCSc4ncccc43)cc2)cc1
  PV pol inh = 99
  PV pol inh intensity = 91

COc1ccccc1C(=O)Nc1ccc(S(=O)(=O)Nc2ncccn2)cc1
  PV pol inh = 105
  PV pol inh intensity = 109

O=C(NCCC1=CCCCC1)c1ccc2c(c1)N(Cc1ccccc1)C(=O)c1ccccc1S2(=O)=O
  PV pol inh = 108
  PV pol inh intensity = 109

Cc1ccc2c(CC(=O)Nc3ccc(S(=O)(=O)N4CCCC(C)C4)cc3)coc2c1 (stereo not given)
  PV pol inh = 120
  PV pol inh intensity = 122

CC(C(=O)Nc1ccccc1C(F)(F)F)n1nnc2sc3c(c2c1=O)CCCC3 (stereo not given)
  PV pol inh = 107
  PV pol inh intensity = 113

CCCCNC(=O)c1cc(Sc2ccc(OCC)cc2)nc2ccccc12
  PV pol inh = 111
  PV pol inh intensity = 116

Cc1cccc(OCC(=O)Nc2ccc(C(=O)OCc3cc(=O)n4nc(C5CC5)sc4n3)cc2)c1
  PV pol inh = 116
  PV pol inh intensity = 118

CCc1ccc2occ(CC(=O)Nc3sc4c(c3C(=O)NCCOC)CCCC4)c2c1
  PV pol inh = 120
  PV pol inh intensity = 115

CCOC(=O)c1cc(S(=O)(=O)Nc2cc(F)ccc2C)[nH]n1
  PV pol inh = 106
  PV pol inh intensity = 109

COc1ccc(NC(=O)N(Cc2ccco2)C2CCN(C(C)=O)CC2)c(OC)c1
  PV pol inh = 104
  PV pol inh intensity = 108

CCCCN(C)CCCNC(=O)Cn1ncc2c3ccccc3n(Cc3cccc(Cl)c3)c2c1=O
  PV pol inh = 137
  PV pol inh intensity = 153

Cc1ccc2c(c1)c(=O)c(C(=O)c1ccc3c(c1)OCO3)cn2Cc1ccc(Cl)cc1
  PV pol inh = 102
  PV pol inh intensity = 103

COc1cc(C2c3c(oc4ccccc4c3=O)C(=O)N2c2ccccn2)cc(OC)c1OC (stereo not given)
  PV pol inh = 102
  PV pol inh intensity = 98

COc1ccc(NC(c2ccc(F)cc2)c2nnc(-c3ccccc3Cl)o2)cc1Cl (stereo not given)
  PV pol inh = 107
  PV pol inh intensity = 111

Cn1c(=O)c2sccc2n2c(CCCC(=O)Nc3ccc(F)cc3F)nnc12
  PV pol inh = 107
  PV pol inh intensity = 102

Rewritten as tab-separated lines: 4 of the compounds above.
Molecule	PV pol inh	PV pol inh intensity
COc1ccc(NC(=O)N(Cc2ccco2)C2CCN(C(C)=O)CC2)c(OC)c1	104	108
COc1cc(C2c3c(oc4ccccc4c3=O)C(=O)N2c2ccccn2)cc(OC)c1OC (stereo not given)	102	98
Cc1ccc2c(CC(=O)Nc3ccc(S(=O)(=O)N4CCCC(C)C4)cc3)coc2c1 (stereo not given)	120	122
CC(C(=O)Nc1ccccc1C(F)(F)F)n1nnc2sc3c(c2c1=O)CCCC3 (stereo not given)	107	113

As entered above:
Result of O=C(NCCC1=CCCCC1)c1ccc2c(c1)N(Cc1ccccc1)C(=O)c1ccccc1S2(=O)=O in PV pol inh: 108
Result of COc1ccc(NC(=O)N(Cc2ccco2)C2CCN(C(C)=O)CC2)c(OC)c1 in PV pol inh intensity: 108
Result of Cn1c(=O)c2sccc2n2c(CCCC(=O)Nc3ccc(F)cc3F)nnc12 in PV pol inh: 107
Result of CCOC(=O)c1cc(S(=O)(=O)Nc2cc(F)ccc2C)[nH]n1 in PV pol inh: 106

Continuation:
Fc1ccc(N2CCN(c3ncnc4onc(-c5ccc(Cl)cc5)c34)CC2)cc1
  PV pol inh = 110
  PV pol inh intensity = 110

COCCCn1c(=O)c2sccc2n2c(CCCC(=O)Nc3ccc(F)c(F)c3)nnc12
  PV pol inh = 100
  PV pol inh intensity = 101

Cc1cc(C)c(Cn2c(CCNC(=O)c3ccco3)nc3ccccc32)c(C)c1
  PV pol inh = 105
  PV pol inh intensity = 109

CCn1cc(/C=C(\NC(=O)c2ccc(OC)cc2)C(=O)NCCCn2ccnc2)c2ccccc21
  PV pol inh = 108
  PV pol inh intensity = 112

Cc1ccc(N2CC(NC(=O)C3CCCCC3)CC2=O)cc1C (stereo not given)
  PV pol inh = 107
  PV pol inh intensity = 113

Cc1cc(-n2c(/C=C/c3ccc(Br)s3)nc3ccccc3c2=O)ccc1Br
  PV pol inh = 111
  PV pol inh intensity = 109

CCc1cccc(C)c1NC(=O)CN1C(=O)C2(SCC(=O)N2c2cccc(F)c2)c2ccccc21 (stereo not given)
  PV pol inh = 103
  PV pol inh intensity = 98

Cc1ccc(CSc2nc3cccnc3n2Cc2ccc(C(=O)NCc3cccs3)cc2)cc1
  PV pol inh = 111
  PV pol inh intensity = 112

Cc1ccc(C)c(NC(=O)CCOc2ccccc2)c1
  PV pol inh = 105
  PV pol inh intensity = 104

Cc1cccc(-n2cnc3cc(C(=O)NC4CCCCCC4)ccc32)c1
  PV pol inh = 108
  PV pol inh intensity = 96

COc1cc(CCC(=O)NCc2ccc3c(c2)CCN3C(=O)c2ccc(F)cc2)cc(OC)c1OC
  PV pol inh = 109
  PV pol inh intensity = 110

Cc1ccc(-c2nnc(SCc3ccccc3C)o2)cc1
  PV pol inh = 105
  PV pol inh intensity = 106

CCOc1cc(C2c3c(oc4ccc(F)cc4c3=O)C(=O)N2Cc2ccc(C)cc2)ccc1O (stereo not given)
  PV pol inh = 100
  PV pol inh intensity = 94

CCOC(=O)c1c(C)[nH]c(C)c1S(=O)(=O)N(C)CC(=O)Nc1ccc(C)c(N(C)C)c1
  PV pol inh = 103
  PV pol inh intensity = 109

Cc1ccc(S(=O)(=O)NCC(c2ccco2)N2CCOCC2)cc1 (stereo not given)
  PV pol inh = 110
  PV pol inh intensity = 110

Shown with two lines to a compound: entries from further up.
Fields: PV pol inh, PV pol inh intensity
Cc1cc(-n2c(/C=C/c3ccc(Br)s3)nc3ccccc3c2=O)ccc1Br
  111, 109
CCOC(=O)c1c(C)[nH]c(C)c1S(=O)(=O)N(C)CC(=O)Nc1ccc(C)c(N(C)C)c1
  103, 109
Cc1ccc(N2CC(NC(=O)C3CCCCC3)CC2=O)cc1C (stereo not given)
  107, 113
Cc1ccc(-c2nnc(SCc3ccccc3C)o2)cc1
  105, 106

Going on with the list.
Cc1ccc(Nc2cc(C(=O)NCc3cccs3)c3ccccc3n2)c(C)c1
  PV pol inh = 105
  PV pol inh intensity = 105

Cc1ccc(Cn2c(SCc3ccc(C(=O)NCCc4ccccc4)cc3)nc3ccncc32)cc1
  PV pol inh = 107
  PV pol inh intensity = 106

Cc1ccc(C)c(N2CCN(C3(c4ccccc4)C(=O)c4ccccc4C3=O)CC2)c1
  PV pol inh = 100
  PV pol inh intensity = 101

CCc1ccc(NC(=O)CSc2nc3c([nH]c4ccccc43)c(=O)n2C)cc1
  PV pol inh = 105
  PV pol inh intensity = 108

Cc1ccc(NC(=O)c2sc3nc(-c4ccncc4)ccc3c2N)cc1
  PV pol inh = 81
  PV pol inh intensity = 228

CCOC(=O)c1c(NC(=O)CSc2cn(CCNC(=O)c3ccccc3OC)c3ccccc23)sc2c1CCC2
  PV pol inh = 106
  PV pol inh intensity = 105

COc1cccc(N2CCN(C(=O)c3cnn(C(C)(C)C)c3C3CCN(C(=O)OC(C)(C)C)CC3)CC2)c1
  PV pol inh = 108
  PV pol inh intensity = 115

COc1ccc(-c2cc(C(F)(F)F)nc(SCC(=O)N3CCCCC3)n2)cc1
  PV pol inh = 122
  PV pol inh intensity = 107

COC(=O)c1c(C)oc2ccc(N(C(=O)c3ccncc3)S(=O)(=O)c3c(C)cc(C)cc3C)cc12
  PV pol inh = 104
  PV pol inh intensity = 104

COc1ccc(S(=O)(=O)Nc2cccc(-c3ccc(N4CCCCCC4)nn3)c2)cc1
  PV pol inh = 104
  PV pol inh intensity = 95

CCn1ccc2cc(S(=O)(=O)N3CCCN(C(=O)Nc4ccccc4F)CC3)ccc21
  PV pol inh = 97
  PV pol inh intensity = 100

COc1ccc(OC)c(CNC(=O)C2COc3ccccc3C2)c1 (stereo not given)
  PV pol inh = 106
  PV pol inh intensity = 110

COc1ccc(N2Cc3cccc(C(=O)Nc4ccc(C)c(C)c4)c3C2=O)cc1
  PV pol inh = 111
  PV pol inh intensity = 112

O=C1CN(C(=O)Cc2ccccc2)C(c2ccc(F)cc2)c2cc(Br)ccc2N1 (stereo not given)
  PV pol inh = 104
  PV pol inh intensity = 110

CCc1cccc(-n2c(=O)c3cccnc3n2CC(=O)NCc2ccccc2Cl)c1
  PV pol inh = 110
  PV pol inh intensity = 106

Cc1ccc(-n2ncc3c(Nc4ccc(Oc5ccccc5)cc4)ncnc32)cc1
  PV pol inh = 107
  PV pol inh intensity = 108

COc1ccc(NC(=O)Nc2cn(CC(C)C)c(=O)c3ccccc23)c(OC)c1
  PV pol inh = 94
  PV pol inh intensity = 100

Cc1ccc(C)c(N2CCN(C(=O)C3CCN(S(=O)(=O)c4cn(C)cn4)CC3)CC2)c1
  PV pol inh = 104
  PV pol inh intensity = 110

CC(C)Cn1cc(NC(=O)N2CCN(c3ccccc3F)CC2)c2ccccc2c1=O
  PV pol inh = 101
  PV pol inh intensity = 105

CCCN1CCN(CC2=C(C(=O)OCC)C(c3ccc(OC(C)C)cc3)NC(=O)N2)CC1 (stereo not given)
  PV pol inh = 106
  PV pol inh intensity = 106

COc1ccc2c(c1)c1c(c(=O)n(-c3ccc(F)c(Cl)c3)c(=O)n1Cc1ccccc1C)n2C
  PV pol inh = 103
  PV pol inh intensity = 108

CCOc1ccc(-n2cc(-c3ccccc3)c3c(NC4CCCC4)ncnc32)cc1
  PV pol inh = 109
  PV pol inh intensity = 99

Cc1ccc(S(=O)(=O)c2nnn3c2nc(NCc2ccc4c(c2)OCO4)c2sccc23)cc1
  PV pol inh = 105
  PV pol inh intensity = 100

COc1ccccc1N1CCN(c2ncnc3c2c(-c2ccccc2)cn3-c2cccc(Cl)c2)CC1
  PV pol inh = 111
  PV pol inh intensity = 114

CC1CCC(NC(=O)c2ccc3c(c2)N(Cc2ccccc2F)C(=O)c2ccccc2S3=O)CC1 (stereo not given)
  PV pol inh = 111
  PV pol inh intensity = 106

Cc1cc(C)c2c(N)c(C(=O)Nc3ccccc3C(F)(F)F)sc2n1
  PV pol inh = 105
  PV pol inh intensity = 103

COc1ccc(-c2nc(C)c(CCNC(=O)C(=O)Nc3ccccc3F)s2)cc1
  PV pol inh = 108
  PV pol inh intensity = 105

Cc1ccc(CCNC(=O)c2cn(C)c3ccc(S(=O)(=O)N4CCC(C)CC4)cc3c2=O)cc1
  PV pol inh = 104
  PV pol inh intensity = 109

COCCCNC(=O)c1nn(C)c2c1CS(=O)(=O)c1ccccc1-2
  PV pol inh = 106
  PV pol inh intensity = 100

Cn1c(-c2ccc(S(=O)(=O)N3CCCC3)cc2)csc1=Nc1ccc(Cl)c(Cl)c1
  PV pol inh = 104
  PV pol inh intensity = 106

COc1ccc(-n2nc3c(N4CCC(C(=O)NCc5cccc(F)c5)CC4)nnc(C)c3c2C)cc1
  PV pol inh = 103
  PV pol inh intensity = 109
